Screening results: PubChem BioAssay, Fisher Drug Discovery Resource Center
NPYLR7 ag: activates Aedes aegypti NPYLR7 receptor. HEK293T NPYLR7/Galpha15, GCaMP6s calcium fluorescence. activation, % at 10 µM. 270,000 compounds, 0.15% hits. AID 1259423; in the data active means activation above about 40%;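 further: 0% = vehicle and 100% = reference agonist at the receptor; some compounds past the cut are filed as inactive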
NPYLR7 ag max-min: also measured in NPYLR7 ag; calls as there; activation, %; measured here: Max-Min RFU normalised activation; some inactives read as strong as hits;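 span of the calcium signal over five minutes; 0% = vehicle and 100% = native peptide agonist; compound fluorescence can raise it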
* = called active by the depositor. This is a subset, so the mix of outcomes need not match the whole.

SMILES | NPYLR7 ag | NPYLR7 ag max-min
O=C(Nn1cnc2c(cnn2-c2ccccc2)c1=O)c1ccc(C(F)(F)F)cc1 | 4 | 0
COc1cccc(C2CCN2C(=O)c2cc3n(n2)CCN(C)C3)c1 (stereo unspecified) | 1 | 1
Cc1c(C)n2c3c(=O)n(Cc4ccc(Cl)cc4)c(=O)n(C)c3nc2n1CCN1CCOCC1 | 2 | 1
Cc1nc(C)c(C(=O)N2CCC(C3(Cc4ccc(F)cc4)NC(=O)N(CC4CC4)C3=O)CC2)s1 (stereo unspecified) | 2 | -2
CCCCN(Cc1cccn1Cc1ccc(Br)cc1)C(=O)CN(CCOC)C(=O)c1ccc(C)c([N+](=O)[O-])c1 | 9 | 15
Cc1ccc(C(=O)N2CCN(Cc3ccc(-c4noc(-c5cccs5)n4)cc3)CC2)c(Cl)n1 | -1 | 2
CCC(C)N(Cc1cc(NC(=O)c2ccccc2Cl)ccc1N(C)C)C(=O)Nc1cccc(F)c1 (stereo unspecified) | 5 | 7
COc1ccc(C(=O)N2CCN(CC(OCc3c(F)cccc3F)c3ccc(Cl)cc3)CC2)cc1F (stereo unspecified) | 4 | -4
CC1c2ccsc2CCN1CC(=O)Nc1ccc(Cl)cc1F (stereo unspecified) | -3 | -10
CCCc1nnc2sc(/C=C/c3ccc(OC)cc3)nn12 | -1 | -3
Cc1ncc(CO)c(C=NN=C2CC3CCC2(C)C3(C)C)c1O (stereo unspecified) | 0 | -3
CC1CCN(C(=O)c2cccnc2Oc2ccccc2)CC(C)(C)C1 (stereo unspecified) | -9 | -15
CCOc1ccccc1NC(=O)N(CCCOC)CC(=O)N(Cc1ccccc1)Cc1ccc(C)s1 | 19 | 24
Cc1cnccc1CN(C)Cc1nc2ccccc2n1C(C)C | 3 | 2
CCCc1noc(CCC(=O)N2CCCC2c2nnc3n2CCCCC3)n1 (stereo unspecified) | 10 | 2
Cc1noc(C)c1CCCNC(=O)c1ccc(-c2cnn(C)c2)nc1 | 7 | 3
COc1ncc(C(=O)NC(c2ccncc2)c2ccc(C)cc2)cn1 (stereo unspecified) | 2 | 2
O=C(CCC(=O)c1cccs1)NNC(=O)c1cc2c(s1)CCCC2 | 0 | -6
Cc1ccnc(SCc2cc(=O)c(OC(=O)Cc3ccc(F)cc3)co2)n1 | -16 | -14
CN1CCN(C(=O)c2cc3nc(-c4ccc(Br)cc4)cc(C(F)(F)F)n3n2)CC1 | -1 | -3
COc1ccc(C2CCCN2CC(=O)Nc2cc(F)cc(F)c2)cc1 (stereo unspecified) | 2 | 2
CC(=O)Nc1ccc(S(=O)(=O)N(CC(=O)N(Cc2cccn2Cc2ccccc2)C2CCCCC2)CC(C)C)cc1 | 5 | 18
COc1ccc(N2CCn3c2nc2c3c(=O)n(CC(C)C)c(=O)n2C)c(OC)c1 | -4 | -6
Cc1ccc(CNC(=O)CSc2nc3[nH]ncc3c(=O)[nH]2)cc1 | -1 | -1
COCCN(CC(=O)N1CCc2sccc2C1c1ccccc1C)C(=O)c1ccc(F)cc1 (stereo unspecified) | -9 | -6
CCCCC1C=CCN1C(=O)CCc1ccc(O)cc1 (stereo unspecified) | 1 | -1
CCCC1(C)CCCN(C(=O)NCCCS(C)(=O)=O)C1 (stereo unspecified) | -1 | -3
O=C(CSc1nc(=O)n2ccccc2n1)N1CCc2ccccc21 | -1 | -4
O=C(NC1CCN(c2ccccc2C(=O)NCc2ccncc2)CC1)c1ccc(C(F)(F)F)cc1 | 2 | 16
Cc1ccc(CNC(=O)/C(C#N)=C2\N=C(NC(=O)c3cccnc3)c3ccccc32)cc1 | 7 | 4
O=C(Nc1ccc(C(F)(F)F)oc1=O)c1ccc(Cl)cc1 | 0 | -1
CC1=C(C(=O)OCC(C)C)C(c2cccs2)NC(=S)N1 (stereo unspecified) | 2 | 2
Cc1cccc(NC(=O)c2cnc3sc(C)cn3c2=O)n1 | 1 | -2
COC(=O)c1ccc(NS(=O)(=O)c2ccccc2Br)s1 | -2 | -4
C(=N/Nc1ncnc2sc3c(c12)CCCC3)/c1c[nH]c2ccccc12 | 4 | 6
CCCCc1ccc(C(=O)N2CCC3(CC2)C(=O)N(CC(=O)NCc2ccco2)CN3c2ccccc2)cc1 | 20 | 24
CN(C)C(=O)CN(C)S(=O)(=O)c1cc(F)cc(F)c1 | 12 | 5
Cc1cccc(NC(=O)N(Cc2cccn2Cc2ccc(F)cc2)C2CCCCC2)c1 | -7 | -6
C=C(C)COc1cccc(NC(=O)N(C)C2CCN(C3CC3)C2)c1 (stereo unspecified) | 1 | 28
CCOC(=O)N1CCC(NCc2nn(C)c3ccc(C)cc23)CC1 | 13 | 9
CCN1CCN(C(c2ccco2)C2Sc3nc(C)nn3C2=O)CC1 (stereo unspecified) | -9 | -8
CONC(=O)C1CCN(S(=O)(=O)c2ccccc2F)CC1 | 2 | 3
Cc1cc(NC(=O)C(C)OC(=O)CCn2nnc3ccccc3c2=O)on1 (stereo unspecified) | 0 | -4
O=C(NCc1ccccc1-n1ccnc1)c1ccc(-n2cnnc2)cc1 | 2 | -2
O=C1CCS(=O)(=O)c2ccc(F)cc21 | 7 | 5
CNC(=O)CN1C(=O)CN(C(=O)c2cc(C)oc2C)CCC(OC)c2ccccc21 (stereo unspecified) | 6 | 8
Oc1ccc(Cl)cc1Cc1cc(Cl)ccc1O | 0 | -10
C=CCn1c(SCC(=O)N2CCCC2)nnc1-c1cc(OC)cc(OC)c1 | -2 | 11
O=C1N(Cc2ccc(F)c(F)c2)CCCC1(O)CNCCc1ccccn1 (stereo unspecified) | 9 | 8
C#CCOCC(O)CN(CCC(C)C)Cc1cccn1C (stereo unspecified) | -3 | 6
Cc1cccc(COC(CN2CCN(S(=O)(=O)c3cc(F)cc(F)c3)CC2)c2ccc(Cl)cc2)c1 (stereo unspecified) | 17 | 11
CC(O)CSc1nc2c(c(=O)n(C)c(=O)n2C)n1CCCc1ccccc1 (stereo unspecified) | -15 | -16
Clc1cc2c(c(CSc3nnnn3-c3ccccc3)c1)OCOC2 | 6 | 1
Cc1ccc(-c2cc(=O)n(-c3nc(C)cc(C)n3)[nH]2)cc1 | -1 | 10
COc1cc2c(cc1OC)C(c1cccc(Cl)c1)N(C(=O)C1(c3ccc(Cl)cc3)CCCC1)CC2 (stereo unspecified) | 14 | 10
O=C(NC1CCc2[nH]c3ccc(Br)cc3c2C1)C1CC=CCC1 (stereo unspecified) | 26 | 13
COCCNC(=O)c1ccc(CSc2nc(C)cc(N3CCN(c4ccccc4Cl)CC3)n2)o1 | 10 | 6
COCCCN(CC(=O)N1CCc2sccc2C1COc1cccc(OC)c1)S(=O)(=O)c1ccc(Cl)cc1 (stereo unspecified) | -2 | 5
COC(C)C(=O)NCC(O)CN1CCC(C)CC1 (stereo unspecified) | -3 | -7
CCOc1ccc(/C=C2/SC(=Nc3ccccc3)NC2=O)c(O)c1 | 10 | 5
(more compounds)
SMILES | NPYLR7 ag | NPYLR7 ag max-min
COc1ccc(OC)c(C2CCN(C(=O)c3cccc4ccnn34)C2)c1 (stereo unspecified) | -2 | -4
Cc1ccc(S(=O)(=O)NC(C)Cn2cncn2)cc1C (stereo unspecified) | 1 | 2
COc1nc2c(cc1C(=O)N1CCn3cncc3C1)CCC2 | -9 | -11
Cc1ccccc1-n1cccc1CN1CCC2(CC1)CN(C)CCN2C | 20 | 15
COc1cc2cc(CN3CCCC3c3ccco3)c(=O)[nH]c2cc1OC (stereo unspecified) | 16 | 12
CCNC(=O)NC(CC(C)C)c1nnc2n1CCNCC2 (stereo unspecified) | 7 | 4
COc1cc(Nc2cc3c(cn2)cc(-c2cnn(C)c2)n3Cc2ccccc2)cc(OC)c1OC | 2 | 0
COc1cccc(CN(CCc2c[nH]c3ccccc23)Cc2nc(C(=O)O)co2)c1OC | 13 | 19
CCOc1c(Br)cc(Cl)cc1NS(=O)(=O)c1cccs1 | 1 | 1
COC(=O)CCc1nnc(NS(=O)(=O)c2ccc(C)c(C)c2)s1 | 0 | 0
O=C(Cc1ccc2c(c1)OCO2)Nc1nc([C@H]2C[C@H](O)[C@@H](CO)O2)cs1 | 16 | 15
Cc1ccc(C2NC(=O)c3cc(C(C)C)sc3N2)cc1 (stereo unspecified) | -2 | -1
Cc1cc(C(=O)N(C2CC2)C(C)C2CC2)c2nc3n(c2n1)CCCCC3 (stereo unspecified) | 0 | 3
CCCN(Cc1cccc(C)c1)CC(O)COCC(C)C (stereo unspecified) | 10 | 4
COC(=O)c1ccc(-c2nc(CN3CCCCC3c3nc4ccc(F)cc4[nH]3)c(C)o2)cc1 (stereo unspecified) | 17 | 18
CC(=O)Nc1cncc(-c2ccccc2F)n1 | 5 | 2
COc1ccc2[nH]c3c(c2c1)CCCC3O (stereo unspecified) | 2 | 10
CCC(=O)N1CCCN(S(=O)(=O)Cc2ccccc2C)CC1 | 9 | 6
C[n+]1cccc(C(O)P(=O)(c2ccccc2)c2ccccc2)c1 (stereo unspecified) | 8 | 6
COc1ccc(CNC(=O)c2c[nH]c3c(c(C)nn3-c3ccccc3)c2=O)cc1 | -1 | 20
CNc1cc(-c2ccccc2)nc(-c2ccccc2)n1 | 1 | 0
CCOC(=O)CCC(=O)Nc1ccc(-c2cccc(-c3cc(OC)ccc3OC)n2)cc1 | -4 | -11
CCCCC(CC)C(=O)N1CCC2(CC1)NC(C(=O)NCCc1ccc(Cl)cc1Cl)CS2 (stereo unspecified) | -1 | 0
CCc1ccc(S(=O)(=O)c2cn(CC)c3ccc(Cl)cc3c2=O)cc1 | -5 | -10
O=C(CC1S/C(=N/N=C2/CCCc3ccccc32)NC1=O)Nc1ccccc1C(F)(F)F (stereo unspecified) | 4 | 2
CC12N=NCC1C(=O)N(c1ccc(Cl)cc1)C2=O (stereo unspecified) | 9 | 4
CC(C)(C)c1ccc(NC(=S)NC(=O)c2cccs2)cc1 | 3 | 2
Cc1oc2ncn(C)c(=O)c2c1C(=O)Nc1cccc(COCC2CC2)c1 | 5 | 2
Cc1ccccc1NC(=O)c1ccc(Cl)o1 | 5 | 6
CCOc1ccc(N2CC(O)(c3cccs3)[N+]3=C2CCCC3)cc1 (stereo unspecified) | -3 | -2
Cc1[nH]cnc1CN(C)Cc1nc2ccccc2n1C | 0 | -1
CC(=O)c1cccc(NC(=O)c2cnn(-c3ccccc3)c2C)c1 | 5 | 6
Cc1cnccc1N1CCN(c2nccc(CCC(F)(F)F)n2)CC1 | 1 | 19
C(=NNC1=NCCCCC1)c1ccc2c(c1)OCO2 | 0 | 0
Cc1cnc2c(C(=O)N(C)Cc3cc(C4CC4)n[nH]3)cnn2c1 | 25 | 10
Cc1cc(NCC(C)C)n2nc(C)c(-c3ccc(Cl)cc3)c2n1 | 1 | -1
COc1ccc(Br)cc1C1=N/C(=C\C=C\c2ccccc2)C(=O)O1 | -2 | -7
COc1ccc(Cl)cc1NC(=O)c1ccc2c(c1)OCCCO2 | -5 | -7
Cc1nc2ccccc2c(=O)n1CCC(=O)N1CCSc2ccc(Cl)cc21 | 2 | 0
COc1ccc(NC(=O)c2cc3nc(-c4ccccc4)cc(C(F)(F)F)n3n2)c(OC)c1 | 7 | 9
O=C(Cn1nc(-c2ccco2)c2sc(N3CCOCC3)nc2c1=O)N1CCc2ccccc21 | -2 | -9
Cc1cccc(-n2c(C)c(C)n3c4c(=O)n(CC(=O)C(C)(C)C)c(=O)n(C)c4nc23)c1C | 8 | 6
O=C1c2cccc3cccc(c23)C(=O)N1CCCN(C(=O)C12CC3CC(CC(C3)C1)C2)c1cccc(F)c1 | -4 | -5
